Compound activity deposited in PubChem BioAssay by National Center for Advancing Translational Sciences (NCATS).
Rango dissoc inh: inhibitors of RanGTP-induced Rango-importin beta complex dissociation; Biochemical FRET Rango-importin beta, RanGTP-induced dissociation; Potency, µM (series often up to 46.1 µM), for inactives: at the highest dose activity change, negative = inhibition; actives 0.071% (n = 340,000); active means falling FRET ratio curve, often poorly fitted, with flat reads before Ran was added; inconclusive means other falling curves, or compound fluorescence or quenching; inactive means flat or rising ratio curve;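 note: potency is the fitted concentration of half-maximal effect; % of control where 0% means no effect; nearly all actives have a fitted effect of over 45% in size; -100% = wells without RanGTP and RCC1; the record marks most hits as doubtful in a second field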
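Rango FRET biosensor (snurportin-1 IBB flanked by N-terminal EYFP and C-terminal CFP10) at 0.1 uM, with 0.25 uM importin beta in PBS, 1mM DTT, 0.02% Tween-20, 0.1% BSA. 0.6 uM Ran, 2mM GTP and 0.2 uM RCC1 were then added for 45 min at room temperature. Inhibition read as loss of FRET rise.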
GLA inh pH 4.5: alpha-galactosidase A (human) inhibition, pH 4.5; activity change, negative = inhibition, % at 105 µM; P06280; 230,000 tested, under 10 active; purified enzyme, 4-MU-alpha-Gal fluorescence, pH 4.5; inconclusive = small, poorly fitted or top-dose-only inhibition, or a rising curve; inactive = flat fitted curve, though single readings scatter; no compound was filed as active;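 note: 0% = full activity with enzyme and -100% = basal without enzyme; dose as in the result columns while the protocol names 77 µM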
Target sequence (P06280 whole entry, looked up): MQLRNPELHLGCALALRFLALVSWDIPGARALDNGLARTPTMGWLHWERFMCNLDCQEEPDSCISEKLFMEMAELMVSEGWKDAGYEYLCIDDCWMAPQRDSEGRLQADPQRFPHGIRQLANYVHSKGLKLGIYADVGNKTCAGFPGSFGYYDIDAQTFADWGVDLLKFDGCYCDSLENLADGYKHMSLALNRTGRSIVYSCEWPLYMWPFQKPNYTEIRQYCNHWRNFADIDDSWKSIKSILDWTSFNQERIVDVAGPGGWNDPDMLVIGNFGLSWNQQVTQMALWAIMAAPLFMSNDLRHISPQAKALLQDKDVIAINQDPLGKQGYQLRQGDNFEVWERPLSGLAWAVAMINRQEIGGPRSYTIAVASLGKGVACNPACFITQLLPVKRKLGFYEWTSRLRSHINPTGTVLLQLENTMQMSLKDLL
miR-21 FLuc: miR-21 reporter, rising signal | HeLa miR-21 FLuc reporter, luciferase, 48 h | Potency, µM (titrated, usually from 38.3 µM), for inactives: at the top dose reporter change, positive = more light | 340,000 tested, under 10 active; active = well fitted rising curve with a large enough effect; inconclusive = small, poorly fitted or top-dose-only effect; inactive = no such curve, though single readings can be large or run the other way;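 note: % of control where 0% means no effect; miR-21 action dims this reporter so a rising signal means less miR-21 action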
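HeLa cells endogenously expressing miR-21, stably carrying CMV-driven firefly luciferase with a downstream miR-21 binding site, 2000 cells/well. Titrations up to approximately 40 uM, 48 hours; luciferase luminescence read.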
Rango-impB inh: Rango-importin beta binding inhibition. Q14974. actives 0.031% (n = 340,000). Potency, µM (highest dose often 92.2 µM), for inactives: at the highest dose inhibition of complex formation. AID 540263. Rango CFP/YFP FRET sensor + importin beta, 45 min; active = rising FRET ratio curve, often small or poorly fitted; inconclusive = mostly compound fluorescence or quenching in the first reads; inactive = flat curves in all reads;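 note: potency is the fitted concentration of half-maximal effect; 0% = DMSO wells and 100% = buffer wells lacking importin beta; nearly all actives have a fitted effect of over 15% in size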
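FRET biosensor Rango (snurportin 1 IBB between N-terminal EYFP and C-terminal Cerulean), 50 nM in PBS/1 mM DTT/0.02% Tween-20/0.1% BSA, preincubated 5 min RT with compound; 0.125 microM importin beta added, 45 min RT, CFP/YFP FRET ratio read.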
* marks the source's active call; other numbers are inactive results; ? = inconclusive; . = not tested or not shown; & = joins results of further samples. Some of the compounds tested; the hit share may differ from the screen's.

Start of the data: the first 2 records, to show the layout:
SMILES	Rango dissoc inh	GLA inh pH 4.5	miR-21 FLuc	Rango-impB inh
COc1cc(C(CC(=O)Nc2ccc(Cl)cn2)N2Cc3ccccc3C2=O)cc(OC)c1OC (stereo not drawn)	-2%	.	5%	1.7%
O=C(O)c1ccccc1C(=O)c1ccc2c(c1)CCC2	21%	.	-1%	-1.4%

Results (from the top)
SMILES	Rango dissoc inh	GLA inh pH 4.5	miR-21 FLuc	Rango-impB inh
COc1cc(C(CC(=O)Nc2ccc(Cl)cn2)N2Cc3ccccc3C2=O)cc(OC)c1OC (stereo not drawn)	-2%	.	5%	1.7%
O=C(O)c1ccccc1C(=O)c1ccc2c(c1)CCC2	21%	.	-1%	-1.4%
Cc1c(Cc2ccccc2)sc(N)c1C(N)=O	.	0	-12%	.
Cc1ccc(NC(=O)CN(C)C(=O)CSc2nncn2C)cc1	11%	-10	0%	0.0%
CC(=O)OCC(=O)NCC(=O)c1c[nH]c2ccccc12	-17%	12	-8%	1.8%
CC(=O)NC(Cc1ccc(F)c(F)c1)C(=O)NC1CCN(c2nnnn2-c2ccccc2)CC1 (stereo not drawn)	?	-3	-1%	0.3%
C=CC(O)(C#CCN(CC)CC)c1ccccc1 (stereo not drawn)	7%	-3	-7%	1.2%
Cc1c(N(C(=O)Cc2cccs2)C2(C(=O)NC3CCCC3)CCCCC2)c(=O)n(-c2ccccc2)n1C	-2%	-7	-4%	-2.7%
Oc1ccc(C2C(c3ccccc3)=NN=C(c3ccc(Cl)cc3)N2O)c(O)c1 (stereo not drawn)	-5%	1	-15%	-1.3%
O=C(Nc1ccc(O)c(-c2nc3ccccc3o2)c1)C1(c2ccc(Br)cc2)CCCC1	4%	-3	-9%	?
CNC(=O)CCn1nc(-c2ccccc2)c2ccccc2c1=O	-11%	-13	-3%	4.3%
CCOc1ccccc1NC(=O)C1CCN(C(=O)C2CC(=O)N(c3ccc(C)cc3)C2)CC1 (stereo not drawn)	22%	.	-2%	2.9%
CCCCSC1=C(C#N)C(c2ccccc2C)CC(=O)N1 (stereo not drawn)	13%	-7	-8%	-1.0%
CC(=O)Nc1ccc(C(=O)c2ccccc2)cc1	-16%	-2	-35%	-4.9%
O=C(Nc1c2c(nn1-c1ccc(F)cc1)CS(=O)(=O)C2)c1ccc(S(=O)(=O)N2CCOCC2)cc1	11%	-3	-6%	?

Limited to GLA inh pH 4.5 and Rango-impB inh, for two of the compounds above:
Structure | GLA inh pH 4.5 | Rango-impB inh
CC(=O)OCC(=O)NCC(=O)c1c[nH]c2ccccc12 | 12 | 1.8%
CCCCSC1=C(C#N)C(c2ccccc2C)CC(=O)N1 (stereo not drawn) | -7 | -1.0%

Further records follow:
SMILES	Rango dissoc inh	GLA inh pH 4.5	miR-21 FLuc	Rango-impB inh
COc1ccc(C(CNC(=O)C(CCSC)NC(=O)c2ccccc2Cl)N2CCCC2)cc1 (stereo not drawn)	10%	.	.	2.3%
O=C(O)CC(c1ccccc1F)N1Cc2ccccc2C1=O (stereo not drawn)	-15%	.	-3%	-2.1%
Nc1ncnc2c1ncn2[C@@H]1O[C@H](COP(=O)(O)OP(=O)(O)OP(=O)(O)O)[C@@H](O)[C@H]1O	?	.	.	-4.1%
COc1ccccc1C(=O)OCCN1CCOCC1	21%	9	-1%	-1.8%
O=C1Nc2cc(C(=O)N3CCOCC3)ccc2SC1N1CCOCC1 (stereo not drawn)	4%	14	-3%	-0.3%
COc1ccc(OCC(=O)NNC(=O)c2cc3ccccc3o2)cc1	1%	0	0%	5.3%
O=C(NNC1=NCCCCC1)c1ccccc1	-6%	4	0%	-0.2%
Fc1cccc(CN2CCN(c3nc4nonc4nc3NC3CC3)CC2)c1	-18%	-15	1%	-2.1%
CCN1C(=O)N[C@@H](CCc2ccccc2)C(C(C)=O)=C1C	10%	-10	.	5.1%
COc1ccc(-n2nc3c(c2NC(=O)C(C)Oc2ccccc2)CS(=O)(=O)C3)cc1 (stereo not drawn)	1%	.	-2%	-1.3%
N#CC1(NC(=O)COC(=O)CN2C(=O)c3ccccc3C2=O)CCCCC1	-14%	.	.	-5.9%
CCN1C(=O)[C@H]2[C@@H](c3ccc(C)cc3)N3C(=O)N(c4ccccc4)C(=O)[C@@]3(Cc3ccc(Cl)cc3)[C@H]2C1=O	8%	.	5%	1.1%
O=C(O)c1cccc(S(=O)(=O)Nc2ccc3[nH]c(=O)[nH]c3c2)c1	?	4	-1%	?
Cn1c(=S)n(/N=C/c2ccc3c(c2)OCO3)c2ccccc21	14%	3	-11%	-0.1%
COC(=O)c1ccc(CSC2=NC[C@@H]3[C@@H]4C(=O)N(C)C(=O)[C@@H]4[C@](Cc4ccccc4)(C(=O)OC)N23)cc1	0%	.	.	-0.1%
CCc1nn(C(C)C(=O)NCCN2CCCCCC2)c(=O)c2cc3occc3n12 (stereo not drawn)	-26%	.	-5%	-0.8%
CS(=O)(=O)N(CC(=O)N/N=C/c1ccco1)c1ccccc1Br	-5%	2	-2%	-0.7%
COC(=O)CC1c2ccccc2S(=O)(=O)N1Cc1ccccc1 (stereo not drawn)	8%	0	-1%	-0.9%
Cc1ccc(N2C(=O)CC(N(CCc3ccccc3)C(=S)Nc3ccc(N(C)C)cc3)C2=O)cc1 (stereo not drawn)	-2%	-4	-4%	-3.2%
CCCc1cc(C(=O)NCc2ccccc2)no1	26%	-3	-35%	-0.1%
Cc1cccc(C)c1OC(=O)C(c1ccccc1)c1ccccc1	9%	-2	4%	3.5%
O=C(Cc1ccccc1)N/N=C/c1ccc(-c2ccc([N+](=O)[O-])cc2)o1	?	-1	-5%	?
Cc1nc(Nc2ccccc2C(F)(F)F)sc1C(=O)N(C)C	-3%	-2	-56%	-1.1%
COCCN(Cc1cc2cc(C)ccc2nc1Cl)C(=O)Nc1ccccc1C	-1%	-1	0%	-0.6%
Cc1cc(O)ccc1NC(=S)NC(=O)c1cncc(Br)c1	-14%	.	11%	6.4%
CCOc1ccccc1NC(=O)Cn1c(=O)n(-c2ccccc2)c(=O)c2oc3ccccc3c21	1%	-2	0%	-1.4%
CCOC(=O)C1=CN(CC)S(=O)(=O)NC1c1ccc2ccccc2c1 (stereo not drawn)	9%	.	.	-2.4%
CC1(C(=O)NCc2ccc(Cl)c(Cl)c2)Oc2cccnc2NC1=O (stereo not drawn)	1%	6	-4%	-0.4%
O=C(CSc1nnc(COc2cccc3cccnc23)o1)N1CCc2ccccc21	9%	-7	-2%	?
O=C(C(=O)N1CCN(c2ccccc2)CC1)c1c[nH]c2ccccc12	1%	3	-15%	-0.8%
Cc1cc(C)c(OCCCCNCc2ccccc2)c(Cl)c1	6%	-3	0%	-0.2%
COc1ccc(OC)c(N(CC(=O)N2CCCC2)S(=O)(=O)c2ccc(C)cc2)c1	1%	.	-2%	?
COc1cc(NC2CCCCC2O)c2nc(-c3ccc(Cl)cc3)ccc2c1 (stereo not drawn)	?	3	-31%	?
N#CCCN(Cc1ccccc1)C(=O)Nc1ccc(F)cc1	-7%	-12	4%	-1.7%
C/C(=N\OC(=O)c1cccc(C)c1)c1sc(-c2ccccc2)nc1C	-14%	-2	-30%	2.2%
CC(C)C(=O)Nc1nnc(SCC(=O)Nc2ccc3c(c2)OCO3)s1	-5%	7	-5%	0.6%
Cc1noc(C)c1C(=O)OCC(=O)NCCC1=CCCCC1	2%	0	-8%	5.3%
COCCNC(=S)N(CCc1c(C)[nH]c2ccc(F)cc12)Cc1cccnc1	1%	.	0%	0.1%
Cc1nc(SCC(=O)N2CCN(c3ccccc3)CC2)n[nH]1	49%	.	-1%	0.9%
Cc1cc(C)c2c(NC(N)=S)n[nH]c2n1	16%	-2	7%	4.7%
COc1cccc2cc(C(=O)N3CCCCC3C)c(=O)oc12 (stereo not drawn)	-1%	0	-12%	-0.3%
CCCCc1c(C)nc(N)[nH]c1=O	11%	5	-3%	4.9%
O=C(NCCCCc1ccccc1)c1cc([N+](=O)[O-])cc([N+](=O)[O-])c1	-1%	.	6%	-0.1%
O=c1n(CCCN2CCN(c3cccc(Cl)c3)CC2)nc2ccccn12	-5%	-7&-4&3&9	-1%	0.3%
CC(C)(C)NC(=O)C1CC(=O)N(CCc2ccc(F)cc2)C1 (stereo not drawn)	1%	.	1%	-0.8%

Taken from above:
O=C(NCCCCc1ccccc1)c1cc([N+](=O)[O-])cc([N+](=O)[O-])c1 in Rango dissoc inh → -1%
CNC(=O)CCn1nc(-c2ccccc2)c2ccccc2c1=O in Rango-impB inh → 4.3%
CCCc1cc(C(=O)NCc2ccccc2)no1 in miR-21 FLuc → -35%

(listing goes on)
SMILES	Rango dissoc inh	GLA inh pH 4.5	miR-21 FLuc	Rango-impB inh
Cc1cccn2c(=O)c3cc(C(=O)NCC4CCCO4)c(=N)n(C4CCCCC4)c3nc12 (stereo not drawn)	?	.	-5%	?
O=C(Nc1cccc(Cl)c1)Nc1nnc(CSCCOc2ccc(Cl)cc2)s1	1%	-4	-5%	0.1%
CC(C)n1c(SCC(=O)NCc2ccco2)nc2c1c(=O)n(C)c(=O)n2C	-13%	-10	0%	5.1%
Cn1c(CN2CCCCC2)nc2cc(NC(=O)c3cccs3)ccc21	1%	8	-20%	2.7%
COc1ccc(NC(=O)COc2ccc(-c3nn(C)c(=O)c4ccccc34)cc2)cc1	1%	-5	-12%&-27%	-0.9%
Cc1nn(Cc2ccc(C(=O)Nc3nccs3)cc2)c(C)c1Cl	-8%	11	13%	-1.4%
COc1c(Cl)ccc(Cl)c1C(=O)NCc1ccco1	13%	0	1%	-4.7%
COC(=O)c1cc(C)sc1NC(=O)CSc1ncccn1	-1%	.	-3%	-4.4%
COc1cnn(-c2ccc(Br)cc2)c(=O)c1SCc1ccccc1	8%	-8	-65%	1.9%
O/N=C(\c1ccc2c(c1)OCCO2)C1CCCCC1	1%	-6	1%	2.7%
O=C(NNC(=S)NCc1ccco1)c1ccc(Cl)s1	?	4	-2%	0.3%
CCc1nc2ccccc2c(C(=O)OCC(=O)Nc2ccc(NC(C)=O)cc2)c1C	?	.	.	6.4%
O=C(NCCCN1CCN(CCCNC(=O)c2ccc3c(c2)OCO3)CC1)c1ccc2c(c1)OCO2	4%	2	-11%	0.9%

Single records, as listed above:
O/N=C(\c1ccc2c(c1)OCCO2)C1CCCCC1 reads Rango dissoc inh: 1%; GLA inh pH 4.5: -6; miR-21 FLuc: 1%; Rango-impB inh: 2.7%
O=C(Nc1cccc(Cl)c1)Nc1nnc(CSCCOc2ccc(Cl)cc2)s1 reads Rango dissoc inh: 1%; GLA inh pH 4.5: -4; miR-21 FLuc: -5%; Rango-impB inh: 0.1%
